Source: PubChem BioAssay
Sa growth 42C = inhibitors of Staphylococcus aureus growth at 42 °C. AID 720641. S. aureus RN4220 growth, OD600, 20 h; active compounds read low. 170,000 tested, 0.53% active. relative growth, % (test concentration not listed);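 active means growth at 42 °C up to 50% and 20 or more points under that at 30 °C, or under 10% at both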;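 further: 300 nL library stock went into each well; scaled to the means of positive and negative controls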
GIV Gai3 FP = GIV-Galpha-i interaction inhibition | P08753 | Galpha-i3/FITC-GIV peptide fluorescence polarization, 90 min; active compounds read low; scaled: aluminum fluoride 0%, vehicle 100% | percent of control (FP), % (no concentration beside the values) | 210,000 tested, 0.42% active | AID 1224905;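 active means replicate mean at 85% of control or lower, very high polarization wells dropped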;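 further: wells of about 15 µL received 100 nL stock; the first replicate is given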
Target sequence (P08753 whole entry, looked up): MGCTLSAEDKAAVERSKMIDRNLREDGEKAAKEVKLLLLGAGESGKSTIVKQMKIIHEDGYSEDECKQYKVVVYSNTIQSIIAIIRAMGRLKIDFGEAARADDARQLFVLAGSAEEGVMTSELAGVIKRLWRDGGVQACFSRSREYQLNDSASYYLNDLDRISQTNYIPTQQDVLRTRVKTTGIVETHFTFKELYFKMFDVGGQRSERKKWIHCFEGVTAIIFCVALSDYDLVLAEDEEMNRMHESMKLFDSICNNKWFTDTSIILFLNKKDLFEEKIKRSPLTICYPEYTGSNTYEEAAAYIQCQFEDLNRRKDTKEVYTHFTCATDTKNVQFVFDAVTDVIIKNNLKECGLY
HCMV UL50-53 inh = inhibitors of HCMV UL50-UL53 nuclear egress complex interaction; inhibition, % (no concentration beside the values); HTRF UL50-UL53 interaction, normalized percent inhibition; 190,000 tested, 0.15% active;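 active means both replicates at 50% or more, plus weaker picks with an unusually low signal ratio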;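 further: stock transfer was 100 nL into about 20 µL; 0% = negative control wells and 100% = wells with untagged competitor protein; inactives centre near -12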
Sa growth 42C second temp = second read-out of Sa growth 42C, no call of its own (marks repeat the call); relative growth, %; measured here: growth at 30 °C;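 optical density after 20 h as mean of two plates; 100% = untreated growth and lower means inhibition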
Numbers without * were called inactive; x = no result given; & = joins results of further samples.

canonical_smiles	Sa growth 42C	Sa growth 42C second temp	GIV Gai3 FP	HCMV UL50-53 inh
Cn1c(C(=O)NCCN2CCOCC2)cc2c(=O)n(C)c3ccccc3c21	89	88	104	-13
O=C(O)C(Cc1c[nH]c2ccccc12)NC(=O)C12CC3CC(CC(C3)C1)C2 (stereo not drawn)	119	98	x	1
Cc1ccc(-c2nnc(Nc3cccc(Br)c3)c3ccccc23)cc1S(=O)(=O)N1CCN(C)CC1	106	86	95	x
COc1cc(C(=O)Oc2cccc(C)c2C)cc(OC)c1OC	105	104	97	-6
CN(C(=O)C1CC1)c1nnc(-c2ccc(F)cc2)s1	89	80	103	-8
COCCCNc1ncnc2onc(-c3ccc(F)cc3)c12	96	85	98	x
CN(C)CCCN(C(=O)c1ccc(Br)s1)c1nc2ccc(F)cc2s1	125	96	108	x
CCOC(=O)c1cc(C)n(CC2CCC(C(=O)Nc3cccc(C)c3)CC2)c1C (stereo not drawn)	101	91	103	x

Laid out differently: results already given.
Cc1ccc(-c2nnc(Nc3cccc(Br)c3)c3ccccc23)cc1S(=O)(=O)N1CCN(C)CC1
  Sa growth 42C: 106
  Sa growth 42C second temp: 86
  GIV Gai3 FP: 95
  HCMV UL50-53 inh: x
COc1cc(C(=O)Oc2cccc(C)c2C)cc(OC)c1OC
  Sa growth 42C: 105
  Sa growth 42C second temp: 104
  GIV Gai3 FP: 97
  HCMV UL50-53 inh: -6

(further entries)
canonical_smiles	Sa growth 42C	Sa growth 42C second temp	GIV Gai3 FP	HCMV UL50-53 inh
Cc1ccc(Nc2nc3nonc3nc2NC2C3CC4CC(C3)CC2C4)cc1 (stereo not drawn)	x	x	111	10
Cc1ccccc1C(=O)Nc1c(C(=O)Nc2cccc(F)c2)oc2ccccc12	102	87	98	-18
CC1(C)CN2C(=S)N(c3ccccc3)C(c3ccccc3)N2C1 (stereo not drawn)	86	108	x	14
Cc1occc1C(=O)Oc1ccc(C(=O)c2ccccc2)cc1	93	64	x	1
CCN1CCC(N(Cc2ccco2)C(=O)NC2CCCC2)CC1	117	96	103	x
CCn1c(=O)cc(C(=O)OC)sc1=Nc1ccc(F)c(F)c1	90	37	100	x
CCN(C(=O)c1cccc(Cl)c1)C1CCCCC1	99	93	103	-18
O=C(CSc1cn(Cc2ccccc2)c2ccccc12)NCc1ccco1	98	82	101	-12
Cc1ccc(N2CC(NC(=O)Cc3cccs3)CC2=O)cc1 (stereo not drawn)	112	98	105	x
CC(=O)Nc1cc2cc(N)ccc2oc1=O	120	95	107	x
CNC(=O)Cc1ccc(-n2c(=O)c3ccccc3n(CC(=O)Nc3ccc(Cl)cc3)c2=O)cc1	x	x	101	-6
CC(C)c1ccc(NCC(O)COc2ccc(Cl)c(Cl)c2)cc1 (stereo not drawn)	108	96	99	4
Cc1ccc(C(CNS(=O)(=O)c2ccc(F)cc2C)N2CCN(C)CC2)cc1 (stereo not drawn)	90	79	101	-31
CC(C)c1nc(C#N)c(NCc2cccnc2)o1	92	92	x	12
CC1=Nc2c(c(C)nn2-c2ccccc2)C(C(F)(F)F)(C(F)(F)F)O1	104	74	x	-32
CSc1ccccc1NC(=O)C1Cc2ccccc2O1 (stereo not drawn)	81	90	x	-32
Cc1ccc(-c2nnc(SCC(=O)N3CCc4ccccc43)o2)cc1	104	82	104	-5
Cc1c(C#N)c(N)n(CCCn2cccn2)c1C	117	95	93	2
Cc1ccc2onc(CNC(=O)NCc3ccc(Cl)cc3)c2c1	102	90	99	x
CN(Cc1ccccc1)C(=O)COc1cc(=O)n(C)c2ccccc12	106	83	98	-14
Cc1nc(-n2nc(C)c(Cc3ccccc3Cl)c2C)sc1C(=O)N1CCC(C)CC1	100	90	99	-13
COc1ccc(S(=O)(=O)Nc2cc3c(cc2NCc2ccccc2)n(C)c(=O)n3C)cc1OC	85	98	99	1
CC(C)Cc1ccc(S(=O)(=O)N2CCc3nc(N4CCCCC4)ncc3C2)cc1	x	x	108	2
O=C(O)c1cc(NCc2ccccc2)ccc1N1CCOCC1	85	82	100	x
CCOC(=O)C1=C(C)N=c2s/c(=C3\C(=O)N(OC(C)=O)c4ccccc43)c(=O)n2C1/C=C/c1ccccc1 (stereo not drawn)	x	x	105	-16
Cc1cccc(N(C)C(=O)CN(C)S(=O)(=O)c2ccc3[nH]c4c(c3c2)CCCC4)c1	91	64	109	x
COc1ccc(-c2ccnc3cc(C(=O)Nc4ccc5c(c4)OCO5)nn23)cc1OC	x	x	102	-14
CCOC(=O)c1c(C)oc2c1c(CN1CCN(c3ccccc3F)CC1)c(O)c1ccccc12	107	94	100	x
CN(C)C(=O)CCc1cc(C(C)(C)C)c(O)c(C(C)(C)C)c1	120	107	100	-12
COc1cc(=O)n(-c2ccccc2)nc1C(=O)N1CCN(C(c2ccccc2)c2ccccc2)CC1	x	x	103	15
C=CCOC(=O)COc1ccc2c(CC)cc(=O)oc2c1	103	91	105	-1
CC(NC(=O)Nc1ccc(Cl)cc1)c1nc(-c2cccnc2)n[nH]1 (stereo not drawn)	77	78	105	18
Cc1cc(Cl)ccc1NS(=O)(=O)c1ccc2[nH]c3c(c2c1)CCCC3	x	x	106	3
CCCn1c(=O)n(C)c(=O)c2c(SCC(=O)Nc3cccc(OC)c3)nc(C(C)C)nc21	117	105	x	-12
CCOc1ccc(Br)cc1C(=O)N/N=C/c1ccco1	80	73	99	-66
Nc1ccc2c(C(F)(F)F)cc(C(F)(F)F)nc2n1	103	91	116	-12
COc1ccc(C2=NN(C(=O)CSc3ccccc3)C(c3ccco3)C2)cc1 (stereo not drawn)	94	98	x	6
Nc1ccc(Sc2nc3ccccc3s2)cc1	136	105	94	-9
O=S(=O)(c1ccc(-c2ccccn2)s1)N1CCC2(CC1)OCCO2	93	88	103	-9
CC(C)NCC(O)c1ccc(O)c(O)c1 (stereo not drawn)	101&99	87&106	113&103	-9&11&-13&-11&-82&-12

Copied from the list.
CC(C)Cc1ccc(S(=O)(=O)N2CCc3nc(N4CCCCC4)ncc3C2)cc1 @ GIV Gai3 FP = 108
CC1(C)CN2C(=S)N(c3ccccc3)C(c3ccccc3)N2C1 (stereo not drawn) @ HCMV UL50-53 inh = 14
Cc1occc1C(=O)Oc1ccc(C(=O)c2ccccc2)cc1 @ Sa growth 42C second temp = 64
Nc1ccc2c(C(F)(F)F)cc(C(F)(F)F)nc2n1 @ Sa growth 42C second temp = 91
CCOC(=O)C1=C(C)N=c2s/c(=C3\C(=O)N(OC(C)=O)c4ccccc43)c(=O)n2C1/C=C/c1ccccc1 (stereo not drawn) @ GIV Gai3 FP = 105

The listing continues.
canonical_smiles	Sa growth 42C	Sa growth 42C second temp	GIV Gai3 FP	HCMV UL50-53 inh
O=C(NC1CCCCC1)c1nc[nH]c1C(=O)NC1CCCC1	x	x	106	-10
COCCn1c(C)cc(O)c(C(c2ccccc2F)N2CCN(c3ccccc3)CC2)c1=O (stereo not drawn)	83	87	99	x
Cc1ccc(Cc2cnc(NC(=O)/C(C#N)=C\c3ccc(-c4ccc(F)cc4)o3)s2)cc1	x	x	102	-21
O=S(=O)(c1ccc2oc3ccccc3c2c1)N1CCOCC1	103	85	x	-5
CC1CN(C)C(C)C/C1=N/O (stereo not drawn)	110	103	113	10
Oc1c(I)cc2oc3c(c2c1C=NCc1ccncc1)CCCC3	78	62	x	-13
CSc1sc(=O)sc1SC	88	93	x	-10
Cc1ccccc1-n1c(C)nnc1SCC(=O)N(Cc1ccccc1)C(C)C	103	85	x	-25

Just Sa growth 42C second temp, Sa growth 42C and GIV Gai3 FP, for some of the entries so far:
| mol | Sa growth 42C second temp | Sa growth 42C | GIV Gai3 FP |
| --- | --- | --- | --- |
| Cc1ccc(Cc2cnc(NC(=O)/C(C#N)=C\c3ccc(-c4ccc(F)cc4)o3)s2)cc1 | x | x | 102 |
| O=S(=O)(c1ccc2oc3ccccc3c2c1)N1CCOCC1 | 85 | 103 | x |

(cont.)
canonical_smiles	Sa growth 42C	Sa growth 42C second temp	GIV Gai3 FP	HCMV UL50-53 inh
COc1ccc(CCN(C)C(=O)CSc2nncs2)cc1OC	92	99	x	3
O=C1CC(c2ccccc2)CC(=O)C1CS(=O)(=O)c1ccccc1 (stereo not drawn)	x	x	99	-10
CC(C)CCNC(=O)CCCCn1c(=O)c2ccccc2n(CC(=O)Nc2ccc(F)cc2)c1=O	x	x	108	-21
N#Cc1nc(-c2ccc(COc3ccccc3)o2)oc1N1CCN(c2ccccc2)CC1	100	89	101	-20
c1csc(-c2nc(-c3c[nH]c4ccccc34)cs2)c1	67	70	x	-11
CN(C)S(=O)(=O)c1cccc(C(=O)NCC(=O)NC2CCN(Cc3ccccc3)CC2)c1	102	96	x	14
COc1ccc(NC(=O)c2cc(-c3ccc(C)o3)nc3ccccc23)cc1OC	73	71	104	-10
O=C(CCCOc1ccccc1)NC1CCCCC1	98	87	x	-22
CCOc1ccc2nc(NC(NC(=O)CC)(C(F)(F)F)C(F)(F)F)sc2c1	88	81	x	-8
CCS(=O)(=O)N1CCN(S(=O)(=O)c2ccc(Cl)cc2)CC1	103	85	99	-20
CC(O)Cc1nsc(NC(=O)c2ccccc2Cl)n1 (stereo not drawn)	x	x	104	-27
CC(C)(CNS(=O)(=O)c1ccc(Cl)cc1)OCc1ccccc1	101	93	x	-22
CCOc1ccc2sc(C=NCCCOC)c(O)c2c1	x	x	106	-54
Cc1ccc(C)c(N2CCN(C(=O)C3CCCN(C(=O)c4[nH]c(C)cc4C)C3)CC2)c1 (stereo not drawn)	x	x	99	-22
Cc1n[nH]c(C)c1Cc1ccc(C(=O)O)o1	85	95	103	-16
O=C(NCCSc1ccccc1)c1ccc(Br)cc1	111	89	x	-7
CCCCCOC(=O)C1=C(C)N(C)C(=O)NC1c1cc2c(cc1Br)OCO2 (stereo not drawn)	x	x	102	-20
CCOc1ccc(CN(C)C(C)C(=O)NCc2ccccc2)cc1 (stereo not drawn)	99	92	x	-19
CCOc1ccc2nc(N3CCCC(C(=O)Nc4cccc(Cl)c4C)C3)sc2c1 (stereo not drawn)	99	81	107	-7
Cc1ccc2oc(=O)c3cc(C(=O)NCCCN4CCN(C)CC4)sc3c2c1	107	92	119	-68
CCCOC(=S)NC1OCC(O)C(O)C1O (stereo not drawn)	82	97	x	-2
Cc1ccc(-c2c3c(=O)n(C)c(=O)n(C)c3cn2C)cc1	107	83	100	x
CCOc1ccc(CNC(=O)C2CCN(S(=O)(=O)N3CCC(C)CC3)CC2)cc1OC	110	92	104	x
N#Cc1c(N)oc(-c2ccco2)c1-c1ccco1	101	66	139	-51
CC(C)CCNC(=O)Cc1ccc(NC(=O)N2CCCCc3ccccc32)cc1	106	88	98	x
COc1ccc(OC)c(C(=O)CSc2ncc3c(n2)-c2ccccc2N(Cc2ccccc2C)S3(=O)=O)c1	90	88	99	x
Cc1ccc(OCC(O)Cn2cnc3ccccc32)cc1 (stereo not drawn)	120	97	106	22
CCc1ccc2nc3n[nH]c(N)c3cc2c1	103	66	100	-88
CC(NC(=O)Cn1c(-c2cccs2)cc2cc(F)ccc21)c1ccccc1 (stereo not drawn)	107	100	108	x
CCCN(CCC)C(=O)Cn1c(SCc2cccc(C)c2)nc2ccncc21	104	98	100&97	-5&-27
COC(=O)c1c(NC(=O)CCCOc2ccc(C)cc2)sc2c1C(C(=O)OC)CC2 (stereo not drawn)	92	91	107	22
C=CCN1C/C(=c2\sc3nc(-c4ccccc4OC(C)=O)nn3c2=O)c2ccccc21	95	91	x	-31
COc1ccc(Nc2nnc(C)c3ccccc23)cc1C(N)=O	x	x	101	-7
CCN(CC)CCCC(C)NC(=O)C(=O)NCc1n[nH]c(=O)c2ccccc12 (stereo not drawn)	x	x	105	-12
COc1cccc(CNC(=O)C2=C(C)C(=O)OC23CCN(C(C)=O)CC3)c1OC	99	98	105	x
Brc1ccc(-c2ccc(CNCC3CCCO3)o2)cc1 (stereo not drawn)	x	x	106	-45
NC(=O)C1(S(=O)(=O)c2ccccc2)CCCCC1	96	88	103	-12
Cc1cc(=O)n(Cc2ccccc2)[nH]1	102	86	x	0
O=C1c2ccccc2-c2onc3c(N4CCN(C5CCCCC5)CC4)cc(NCCO)c1c23	104	82	100	-136
CCC(C)c1ccc(NC(=O)C2CC=CCC2C(=O)O)cc1 (stereo not drawn)	114	101	x	6
COc1ccc(N2C(=O)c3ccc(Oc4ccccc4)cc3C2=O)cc1	113	95	105	x
COc1ccc(C[C@H](N)C(=O)N[C@H]2[C@@H](O)[C@H](n3cnc4c(N(C)C)ncnc43)O[C@@H]2CO)cc1	37	51	100	-31&10
